Compound activity deposited in PubChem BioAssay by National Center for Advancing Translational Sciences (NCATS).
HPGD inh – blocks human HPGD enzyme activity | P15428 | purified HPGD, NADH fluorescence kinetic, PGE2 substrate | Potency, µM, inactives show at the highest dose activity change, negative = inhibition, actives largely listed as inhibitors | hit rate 4.3% among 150,000; active = well fitted inhibition curve with a large enough effect (not every such curve was filed as active); inconclusive = small, poorly fitted or top-dose-only effect, or another doubt; inactive = no such curve, though single readings can be large or run the other way;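 also: top concentration of the series not given in the record; plate controls included wells without enzyme; inactives centre near -10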
Target sequence (P15428 whole entry, looked up): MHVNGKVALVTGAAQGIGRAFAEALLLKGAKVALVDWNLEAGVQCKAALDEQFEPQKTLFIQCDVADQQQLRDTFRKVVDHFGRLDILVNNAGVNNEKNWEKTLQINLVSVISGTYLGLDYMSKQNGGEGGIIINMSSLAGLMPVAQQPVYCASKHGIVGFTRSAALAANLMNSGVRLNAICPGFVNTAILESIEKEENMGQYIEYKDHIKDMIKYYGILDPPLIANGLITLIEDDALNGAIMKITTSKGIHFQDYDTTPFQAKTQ
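20 nM HPGD preincubated 15 min at room temperature with compound in 50 mM Tris-HCl pH 8, 0.01% Tween 20. Started with 1 mM NAD+ and 30 uM prostaglandin E2; NADH fluorescence (360/450 nm) read 5 times over 30-s intervals, last minus first.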
Active calls of the source: *; ? = inconclusive; & = joins results of further samples. % is scaled to controls: 0 for no effect and ±100 for the full control effect; potency is read from the fitted curve at half-maximal effect. These rows are one share of the data; count on the stated rates, not on these rows.

entry | canonical_smiles | HPGD inh
1 | CCN(CC)S(=O)(=O)c1cccc(C(=O)OCC(=O)c2ccc3c(c2)OCCO3)c1 | -11.6%
2 | Cc1nc(-c2cccc(NS(=O)(=O)c3ccc4ccccc4c3)c2)cs1 | -21.6%
3 | CCOC(=O)c1sc2ncn(CC(=O)NCC3CCCO3)c(=O)c2c1C (centres undefined) | 2.0%
4 | COc1ccc(CN=CC2=C(O)CNC2=O)cc1 | -5.9%
5 | COc1ccc(/C(O)=C2/C(=O)C(=O)N(c3nc(C)c(C)s3)C2c2ccco2)cc1 (centres undefined) | -19.1%
6 | O=C1C2CC=CCC2C(=O)N1c1ccc(Cc2ccncc2)cc1 (centres undefined) | -18.2%
7 | O=c1ccnc(S/C=C/c2ccccc2)[nH]1 | ?
8 | O=C(CNC(=O)c1cccc(Br)c1)N/N=C/c1cn[nH]c1-c1ccccc1 | -6.5%
9 | CC(C)C(=O)Nc1cccc(-c2csc(-c3ccccc3)n2)c1 | -17.8%
10 | CCOc1ccccc1N(CC(=O)NCc1ccc(OC)cc1)S(C)(=O)=O | -6.3%
11 | O=C(Cc1ccc(F)cc1)Nc1ccccc1Sc1ccccc1 | -9.1%
12 | O=C(CN1CCN(CC(=O)Nc2ccc3c(c2)OCO3)CC1)Nc1ccc(F)cc1 | -7.4%
13 | C=CCN(CC=C)S(=O)(=O)c1ccc(NC(=S)NC(=O)c2ccc(-c3ccccc3)cc2)cc1 | ?
14 | CC(=O)N/C(=C\c1ccc(F)cc1)C(=O)N(C)C | -0.1%
15 | Cc1c(C(=O)O)sc2nc3n(c(=O)c12)CCC(C)CC3 (centres undefined) | -13.8%
16 | O=c1oc2ccccc2cc1-c1nc2c(s1)CCc1ccccc1-2 | ?
17 | CCC1=Nc2cc(C(=O)O)ccc2Sc2ccccc21 | -10.0%
18 | O=C(NCc1ccco1)c1cccc(NC(=O)c2ccco2)c1 | -16.0%
19 | CCCC(c1nnnn1Cc1ccco1)N1CCC(C(N)=O)CC1 (centres undefined) | 2.8%
20 | COc1cc(/C=C/C(=O)NCCN2CCOCC2)cc(OC)c1OC | ?
21 | COc1ccc(C(C)C)cc1S(=O)(=O)n1ccnc1C | -5.9%
22 | C[C@]12CC[C@H]3c4ccc(O)cc4CC[C@@H]3[C@H]1CC[C@@H]2OC(=O)CCC1CCCC1 | -10.1%
23 | O=C(Nc1ccc2oc(-c3ccncc3)nc2c1)c1cccs1 | ?
24 | O=C(CCCN1Cc2ccccc2C1)c1ccc(F)cc1 | -14.5%
25 | CCCN1C(=O)/C(=N\OCC(=O)Nc2ccc(C(C)C)cc2)c2ccccc21 | -24.4%
26 | COc1ccccc1NS(=O)(=O)c1ccc(N/N=C/c2c(C)nn(-c3ccccc3)c2N2CCCC2)c([N+](=O)[O-])c1 | -7.7%
27 | CC1=C(C(=O)Nc2ccccc2)C(c2ccccn2)n2nc(CCCO)nc2N1 (centres undefined) | -13.1%
28 | CCC(=NCc1ccccc1)c1c(C(F)(F)F)[nH]n(-c2nc3ccccc3s2)c1=O | -15.1%
29 | CCc1ccc(OCc2nnc(SCCN3CCOCC3)n2C)cc1 | -10.8%
30 | Cc1nc(SCC(=O)Nc2ccc3c(c2)OCCO3)c2oc3ccccc3c2n1 | -6.6%
31 | O=C(O)c1cc(N/N=C/c2ccc3c(c2)OCCO3)ccc1Cl | -7.7%
32 | O=S(=O)(/N=C(\c1ccccc1F)N1CCCCC1)c1ccccc1 | -7.6%
33 | C=C(C)COc1ccc(-c2ncncc2Oc2ccc(OC)cc2)c(O)c1 | 17.8µM*
34 | CN1CCN2c3ncccc3Cc3ccccc3C2C1 (centres undefined) | -12.6%
35 | Cc1cc(=O)oc2cc(OCC(O)CN3CCN(c4ccc(F)cc4)CC3)ccc12 (centres undefined) | ?
36 | Cc1ccc(NC(=O)CN2CCN(c3ccccn3)CC2)c(Cl)c1 | -12.7%
37 | Cc1cc(Cl)ccc1Oc1ccc(C(N)=O)cc1[N+](=O)[O-] | -9.7%
38 | COc1ccc(OC)c(-n2c(O)cnc2Nc2nc(C)cc(C)n2)c1 | -4.4%
39 | COc1ccc(Oc2coc3cc(OC(=O)/C=C/c4ccccc4)ccc3c2=O)cc1 | -1.3%
40 | CC1(C)SCC(C(=O)O)N1C=O (centres undefined) | 4.3%
41 | CC(=O)NCC(=O)NC1(C(=O)NC2CCCC2)CCCCC1 | 5.8%
42 | Cc1ccc(N2C(N)=C(C#N)C(c3cccs3)C3=C2CC(C)(C)CC3=O)cc1 (centres undefined) | ?
43 | COCC(C)NC(C(=O)Nc1ccc(C)c(Cl)c1)c1ccccc1 (centres undefined) | -11.2%
44 | O=C(C1CC1)N1CCCN(C(=O)C2CC2)CC1 | -0.8%
45 | COc1cccc(CNC(=O)C(=O)NCC(c2ccco2)N2CCOCC2)c1 (centres undefined) | -12.4%
46 | CCc1cccc(CC)c1NC(=O)COC(=O)/C(C#N)=C/c1ccc(OC)cc1 | -15.9%
47 | COc1ccccc1CN=C1NC(=O)C(CC(=O)Nc2ccc(OC)c(OC)c2)S1 (centres undefined) | -9.4%
48 | O=C1CCC(N2C(=O)c3ccccc3C2=O)C(=O)N1 (centres undefined) | -16.2%&-9.7%&-8.4%
49 | Cn1c(=O)c(C(=O)COC(=O)c2cc(C(F)(F)F)nc3ccccc23)c(N)n(Cc2ccccc2)c1=O | ?
50 | Cc1ccccc1-n1c(Cn2c(=O)sc3ccccc32)nnc1SCC(N)=O | -13.7%
51 | COc1ccc2o/c(=N/NC(=S)Nc3ccccc3)c(C(N)=O)cc2c1 | -11.4%
52 | Cc1ccc(C(=O)/C=C/Nc2ccccc2C(N)=O)cc1 | -16.9%
53 | Cc1nc(Nc2cccc(C(F)(F)F)c2)nc2c1C(=O)CC(C)C2 (centres undefined) | -9.1%
54 | Cc1nn(-c2ccc(F)cc2)c(C)c1NS(=O)(=O)c1ccc2ccccc2c1 | -5.0%
55 | CCc1nnc(NC(=O)c2c(OC)cccc2OC)s1 | -17.2%
56 | CCOc1cc(N2CCOCC2)c(OCC)cc1NC(=O)COc1cccc2cccnc12 | -2.7%
57 | CCOC(=O)c1cccc2c1-c1ccccc1/C2=N/O | -12.3%
58 | COCCCNC(=O)Nc1ccc(Br)cc1Cl | -10.6%
59 | CC(=O)NC(Cc1c[nH]c2ccccc12)C(=O)NCc1ccc2c(c1)OCO2 (centres undefined) | -5.2%
60 | CC(C)NC(=O)c1cc2cc(Br)ccc2oc1=O | -25.4%

(cont.)
entry | canonical_smiles | HPGD inh
61 | O=C(CSc1nnc(Cn2nnc(-c3ccccc3)n2)n1-c1ccccc1)Nc1ccc(F)cc1 | -1.5%
62 | CCCC(=O)Nc1sc2c(c1C(=O)OC)C(C(=O)OC)CC2 (centres undefined) | -20.6%
63 | O=C(O)C1CCCN1c1ncnc2ccccc12 (centres undefined) | -7.5%
64 | O=C(O)c1ccncc1.O=C(O)c1ccncc1.[Cl][Pt]([Cl])([Cl])[Cl] | 3.98µM*
65 | CC(C)OCCCNC(=O)C1CCN(S(=O)(=O)N2CCCCC2)CC1 | 5.7%
66 | CC(=O)c1ccc(NC(=O)C(C)Sc2nnnn2C)cc1 (centres undefined) | 0.2%
67 | COc1ccc(-n2c(Cc3cccn3C)nnc2SCC(=O)Nc2ccccc2)cc1 | -14.1%
68 | O=C(COC(=O)c1c2c(nc3ccccc13)/C(=C\c1cccs1)CCC2)Nc1ccccc1 | ?
69 | C=CCC1c2cccc(C(=O)O)c2C(=O)N1c1ccc(Cl)cc1 (centres undefined) | -4.0%
70 | CCCC(C)c1nnc(NC(=O)c2cc(C(=O)OC)cc([N+](=O)[O-])c2)s1 (centres undefined) | 11.2µM*
71 | CCOC(=O)c1oc2ccc(S(=O)(=O)n3nc(-c4ccccc4)cc3N)cc2c1C | -13.6%
72 | N#CC1=C(N2CCCCC2)c2cc3c(n2C1=O)CCCC3 | 25.1µM*
73 | COc1ccc(N2C(=O)CC(N3CCOCC3)C2=O)cc1 (centres undefined) | -8.7%
74 | COc1cc(C=Nc2ccccc2C(=O)Nc2ccccc2)cc(OC)c1OC | ?
75 | O=C(CSCCO)Nc1ccc(C23CC4CC(CC(C4)C2)C3)cc1 | -11.4%
76 | Cc1ccc(S(=O)(=O)NCCSc2nnnn2-c2ccccc2)cc1 | -17.6%
77 | CCc1nnc(SCC(=O)Nc2ccc3c(c2)OCO3)o1 | -10.8%
78 | Cc1ccc(C(C(=O)Nc2ccc3c(c2)OCO3)N(C)C(=O)/C=C\c2ccc3c(c2)OCO3)cc1 (centres undefined) | -28.5%
79 | CC1CCN(CC(=O)Nc2ccccc2Sc2ccccc2)CC1 | -4.2%
80 | O=C(CN1CCN(CCO)CC1)Nc1ccccc1 | -12.9%
81 | CCn1cc(C(=O)N/N=C(/C)c2ccc(F)cc2)c(=O)c2cc(F)c(N3CCCC3)cc21 | -12.2%
82 | c1csc(-c2nc(-c3ccncc3)no2)c1 | -9.3%
83 | Cc1ccc(-c2nnc(-c3ccc(Br)cc3)o2)o1 | ?
84 | CCCCOC(=O)CCn1[nH]c(=O)c2ccccc2c1=O | -6.3%
85 | CC[C@H](C)[C@@H](NC(=O)O[C@H]1C(=O)c2ccc(OC)cc2O[C@@H]1c1ccc2c(c1)OCO2)C(=O)OC | -0.2%&-10.0%
86 | Cc1c(NC(=O)/C(=C/c2cccs2)c2cccs2)c(=O)n(-c2ccccc2)n1C | -22.3%
87 | CCSc1nnc2c(n1)OC1(CCCC1)Nc1ccccc1-2 | -17.9%
88 | Cc1noc(C)c1S(=O)(=O)NCCc1ccc(S(N)(=O)=O)cc1 | -7.4%
89 | CCn1cc([N+](=O)[O-])c(C(=O)N2N=C(c3ccc4ccccc4c3)CC2c2ccccc2O)n1 (centres undefined) | -3.2%
90 | CCOC(=O)c1cnc(-n2nc(C)cc2C)nc1N(C)C | -16.7%
91 | CCN(C(=O)c1cnc(N2CCN(c3ncccn3)CC2)c2ccccc12)c1cccc(Cl)c1 | ?
92 | CC(C)NC(=O)c1ccc(COCC(F)(F)F)cc1 | -25.0%
93 | O=S(=O)(N/N=C/c1ccccc1OCc1ccc(Cl)cc1)c1ccccc1 | -5.8%
94 | CCc1ccccc1NC(=O)CCC(=O)OCC(=O)c1ccc(-c2ccccc2)cc1 | -17.2%
95 | COc1ccccc1N1CCN(C(c2cc3ccc(C)cc3[nH]c2=O)c2nnnn2C2CCCC2)CC1 (centres undefined) | -15.0%
96 | O=C(O)CC(Cc1ccccc1)C(=O)Nc1ccc([N+](=O)[O-])cc1 (centres undefined) | -3.2%
97 | O=C1CC(Sc2ncccn2)C(=O)N1c1ccccc1C(F)(F)F (centres undefined) | -12.3%
98 | NC(Cc1ccc(O)c([N+](=O)[O-])c1)C(=O)O (centres undefined) | -24.7%
99 | Cc1nc2sc(C(c3ccc(Br)cc3)N3CC(C)OC(C)C3)c(O)n2n1 (centres undefined) | -6.8%
100 | Cc1ccc(NC2=CC(=O)CC(C)(C)C2)cc1C | -22.0%
101 | CCSc1nnc(NC(=O)CSc2nnc(-c3c[nH]c4ccccc34)n2CC)s1 | -22.8%
102 | COc1ccc(C2C(C#N)=C(/N=C/N3CCN(C)CC3)OC3=C2C(=O)CC(C)(C)C3)cc1 (centres undefined) | -10.4%
103 | CC(=O)N(C)c1ccc(NC(=O)COc2ccc(Br)cc2C)cc1 | -2.3%
104 | CC(C)NC(=O)c1ccccc1NC(=O)/C=C/c1cccc([N+](=O)[O-])c1 | -6.7%
105 | O=C(NC1CCCCC1)C(c1cccs1)N(C(=O)C(F)(F)F)c1ccccc1 (centres undefined) | -11.4%
106 | COC(=O)c1cc(OC)c(OC)cc1NC(=O)c1ccc(C)cc1 | ?
107 | COc1ccc(C2C(C#N)=C(SC)NC3=C2C(=O)CC(C)(C)C3)cc1 (centres undefined) | -21.9%
108 | COc1ccccc1CNC(=O)CCCN1C(=O)COc2ccc(C)cc21 | -13.0%
109 | CCOc1ccccc1C1CC(=O)NC(SCC(=O)Nc2nccs2)=C1C#N (centres undefined) | -20.3%
110 | O=C1C2C3C=CC([C@@H]2C(=O)N1C1CC1)[C@H]1C(=O)N(C2CC2)C(=O)C31 (some centres undefined) | -5.6%
111 | Cc1ccc(N(CCC#N)C(=O)CCl)cc1C | -3.7%
112 | CC(=O)Nc1cccc(-c2csc(Nc3cccc(C)n3)n2)c1 | -17.3%
113 | O=C(COC(=O)C1(c2ccccc2F)CCCC1)NCc1ccc2c(c1)OCO2 | -15.2%
114 | CCCCn1c(SCC(=O)Nc2cc(C(F)(F)F)ccc2Cl)nnc1C(CC)N(C)C (centres undefined) | -9.0%
115 | Cc1cccc(-c2nc(CSCC(=O)NCCCN3CCOCC3)c(C)o2)c1 | -7.3%
116 | c1ccc(Oc2cccc(OCCn3cncn3)c2)cc1 | -8.3%
117 | Cc1c(C(=O)Nc2nc3ccccc3[nH]2)oc2ccccc12 | -21.0%
118 | CCOC(=O)c1ccccc1NC(=O)CSc1nnc(Cc2cccn2C)n1-c1ccc(F)cc1 | -10.3%
119 | O=S(=O)(c1ccc(Br)cc1)N1CCCN(Cc2cccc(F)c2)CC1 | -10.1%
120 | CC(C)(C)OC(=O)NC1CONC1=O (centres undefined) | -3.0%
121 | CCOCCCNC(=O)COc1ccc(OC)cc1 | -9.5%
122 | CC1Cc2nc(SCC(=O)Nc3ccc(F)cc3)n(C)c(=O)c2S1 (centres undefined) | -13.1%

Some of the entries above, set out differently:
119: O=S(=O)(c1ccc(Br)cc1)N1CCCN(Cc2cccc(F)c2)CC1
  HPGD inh = -10.1%
113: O=C(COC(=O)C1(c2ccccc2F)CCCC1)NCc1ccc2c(c1)OCO2
  HPGD inh = -15.2%
109: CCOc1ccccc1C1CC(=O)NC(SCC(=O)Nc2nccs2)=C1C#N (centres undefined)
  HPGD inh = -20.3%
118: CCOC(=O)c1ccccc1NC(=O)CSc1nnc(Cc2cccn2C)n1-c1ccc(F)cc1
  HPGD inh = -10.3%
